Assay outcomes (PubChem)
S aureus helic: S. aureus DNA helicase inhibition | actives 0.05% (n = 120,000) | AID 485395 | inhibition, %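 (tested at about 80 µM)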 | purified S. aureus helicase, fluorescence unwinding assay; about half of the hits fall short of the stated cut;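 active = both duplicates at 50% or more, or one of them with a favoured structure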;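 note: 0% = mean of negative control wells and 100% = mean of positive control wells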
MgrA DNA FP: modulators of Staphylococcus aureus MgrA DNA binding; fluorescence polarization; inhibition, %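 (about 10 µg/mL by stock and volumes)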; actives 0.13% (n = 84,000); AID 602314;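 active = above 50% in either of two replicates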;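 note: 0% = protein plus DNA without compound and 100% = DNA alone without protein; higher means less MgrA bound to DNA so lower polarization; one replicate is shown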
The depositor's hits bear a star; · = no result given; & = joins results of further samples. These rows are one share of the data; the hit share may differ from the screen's.

SMILES	S aureus helic	MgrA DNA FP
CC1CN(C(=O)COC(=O)COc2cc(Cl)c(Cl)cc2Cl)CC(C)O1 (stereo unspecified)	8	·
CC(C)c1ccc(NCCNC2CCCCCC2)cc1	3	1.9
CC(C)(C)c1ccc(C(=O)NC2=NCCS2)cc1	6	2.8
Cc1nc2cccnc2n1-c1ccc(CC(=O)N2CCc3ccccc32)cc1	6	·
CCCN1C(=O)C2CC(C)=C(C)CC2C1=O (stereo unspecified)	-17	5.7
O=C(CSc1nnc(CNc2ccccc2)o1)c1ccc2c(c1)OCCO2	5	-4.0
O=c1[nH]c(O)c(/C=C/N=Nc2ccccc2)c(=O)[nH]1	-8	·
COc1ccc(-c2coc3c(C)c4oc(=O)c5cc(OC)ccc5c4cc23)cc1	21	2.1
CCCNC(=O)COc1ccccc1OC	9	0.1
CC(=O)OC1CCCCC1C1=CCCCC1 (stereo unspecified)	6	-2.2
CCCc1cc(NCCN(C)C)n2c(nc3ccccc32)c1C#N	-19	·
CCn1cc(CN(Cc2ccccc2)C(=S)Nc2cc(C)ccc2C)c2ccccc21	7	0.2
Nc1nn2cc(-c3ccc(Cl)s3)nc2c2ccccc12	-8	0.8
O=C(O)c1ccccc1OCc1cn2ccccc2n1	0	·
CC(NS(C)(=O)=O)C(c1cccs1)N1CCN(c2ccccc2)CC1 (stereo unspecified)	-14	·
CC1CCCCN1c1nc(-c2ccccc2O)nc2ccccc12 (stereo unspecified)	11	-0.6
Nc1cc(=O)[nH]c(SCc2ccc(C(=O)c3ccccc3)cc2)n1	-32	·
c1ccc(-c2csc3ncnc(N4CCCCC4)c23)cc1	6	·
COc1ccc(S(=O)(=O)N2CCN(c3cccc(Cl)c3C)CC2)cc1OC	8	-0.8
O=C(NC(=S)Nc1ccc(O)c(-c2nc3ccccc3o2)c1)c1ccccc1	8	2.7
CCOc1nc2cnccc2n(Cc2ccc(C)cc2)c1=O	6	·
Cn1c(CN2CCCCC2)nc2ccccc21	21	1.6
CC(=O)NC(CC(N)=O)C(=O)O (stereo unspecified)	·	-0.1
Cc1cccc(C(=O)OCC(=O)N2c3ccccc3CC2C)c1O (stereo unspecified)	15	-2.0
Cc1ccc(Nc2oc(-c3ccc(C)cc3)nc2C#N)cc1	8	·

Rewritten with bars between the fields: part of the list above.
mol | S aureus helic | MgrA DNA FP
CC(=O)OC1CCCCC1C1=CCCCC1 (stereo unspecified) | 6 | -2.2
CCCc1cc(NCCN(C)C)n2c(nc3ccccc32)c1C#N | -19 | ·

(continued)
SMILES	S aureus helic	MgrA DNA FP
O=C(CSc1cn(Cc2ccccc2)c2ccccc12)N1CCCC1	-11	·
N#Cc1c(N=CN2CCCCC2)nc2c(c1-c1ccccc1)CCCC2	·	0.5
O=C1NC(c2ccccc2Cl)Nc2ccccc21 (stereo unspecified)	·	-0.5
OC(CNCC1CCCO1)COc1ccc(-c2ccccc2)cc1 (stereo unspecified)	7	-1.6
CCC(C)c1ccc(NC(=O)N(C)C)cc1 (stereo unspecified)	5	7.1
O=C(c1cc(-c2ccccc2)nn1-c1ccccc1)N(C1CC1)C1CCS(=O)(=O)C1 (stereo unspecified)	12	·
Oc1ccc(C=NC2CCCCC2)cc1	16	1.1
Cc1ccc(NC(=O)Sc2ccc(Cl)cc2)cc1	-16	·
O=C(Nc1nc(-c2ccc(Cl)s2)cs1)c1ccco1	18	·
CCOC(=O)CSc1nc(N)c(C#N)c(CC(C)C)c1C#N	5	·
CC(C)=NOC(=O)c1cn(-c2ccccc2)nc1-c1cccs1	-11	·
CCN1CN=C(SCc2ccc(C)cc2)NC1	·	-2.6
Cc1ccccc1C(NC(N)=O)c1ccccc1 (stereo unspecified)	4	2.7
CCCOc1cc(N)ccc1C(=O)OCCN(CC)CC	·	1.4
CCCc1nc2ccccc2n1CC(=O)N(c1ccccc1)C(C)C	7	·
Cc1cc(/C=N/NC(N)=S)c(C)n1CC(F)(F)F	-9	·
CCc1c(C)c2ccc(OCC(=O)C(C)(C)C)c(C)c2oc1=O	-2	-0.5
COc1ccc(C(=O)Nc2ccc3c(c2)nc2n3CCN(Cc3ccccc3)C2)cc1	34	·
CC(C)C(=O)c1ccc(OCCOc2ccc(C#N)cc2)cc1	-7&0	·
O=C1CCCCN1c1ccc(C(F)(F)F)cc1	·	-2.6
CC(C)CCN(Cc1ccco1)S(=O)(=O)c1ccc(-c2cc(C(F)(F)F)no2)s1	-11	·
O=C1CC(C(=O)O)C(c2ccccc2)O1 (stereo unspecified)	8	-5.3
O=C(NCC1CCCCC1)c1ccc(Br)o1	-12	-0.4
Clc1cccc(Cl)c1-c1cc(-c2ccccn2)on1	·	-3.8
O=S(=O)(NCCc1ccccc1)c1cccs1	1	0.9

Shown with two lines to a compound: 3 of the compounds above
Below each SMILES: S aureus helic | MgrA DNA FP
CCC(C)c1ccc(NC(=O)N(C)C)cc1 (stereo unspecified)
→ 5 | 7.1
O=C(c1cc(-c2ccccc2)nn1-c1ccccc1)N(C1CC1)C1CCS(=O)(=O)C1 (stereo unspecified)
→ 12 | ·
Oc1ccc(C=NC2CCCCC2)cc1
→ 16 | 1.1

Later entries:
SMILES	S aureus helic	MgrA DNA FP
Fc1ccc(N=Cc2ccc3c(c2)OCO3)cc1	·	0.6
COC(=O)/C(C#N)=C1\NC(C)=NC(SC)=C1C#N	·	-1.3
CCCCCc1ccc(Nc2cn[nH]c(=O)c2Cl)cc1	5	·
C=CCN=C1SCC(=O)N1S(=O)(=O)c1ccccc1	16	·
COCCNC(=O)c1cc(-c2ccccn2)nc2ccc(S(=O)(=O)N3CCC(C)CC3)cc12	-17	·
Cc1nnc(SCc2nc3sc4c(c3c(=O)[nH]2)CCCC4)n(N)c1=O	-6	·
COc1ccc(NC(=O)COC(=O)c2ccc(-n3cnnn3)cc2)cc1Cl	20	·
CCOC(=O)c1nc(N2CCCC(C)C2)c2ccccc2n1 (stereo unspecified)	19	·
Clc1cc(Cl)c(NN=C2CCCC2)c(Cl)c1	-19	·
Cc1nnc(SCC(=O)N2N=C3/C(=C/c4ccco4)CCCC3C2c2ccco2)n1-c1ccccc1 (stereo unspecified)	-2	·
CCOC(=O)c1oc2ccccc2c1NC(=O)CCSc1ccccc1	-13	·
CCOC(=O)NNC(=S)Nc1cccc(C(F)(F)F)c1	·	2.9
COC(=O)c1sc(SC)c2c1CC(C)(C)CC2=O	·	-1.0
COC(=O)C1C(=O)NC(SCc2ccccc2)=C(C#N)C1c1ccccc1 (stereo unspecified)	11	1.8
O=C(c1cccc2c1NC(c1ccc(Br)cc1)C1CC=CC21)N1CCOCC1 (stereo unspecified)	·	1.2
CCCc1ccc(NC(C)=O)cc1	·	-0.6
O=C(Nc1cccc(C(F)(F)F)c1)c1ccc2nc[nH]c2c1	27	-2.5
Cc1noc(C)c1CS	-21	·
CCC1Oc2ccccc2N(CC(=O)N2CC(C)CC(C)C2)C1=O (stereo unspecified)	5	2.4
O=c1oc2ccccc2cc1-c1nc(-c2ccccc2)no1	-13	1.4
CCN(CC)S(=O)(=O)c1ccc(Cl)c(C(=O)Oc2ccc(C)cc2-n2nc3ccccc3n2)c1	7	1.4
O=C(OCc1ccc(Cl)cc1Cl)c1cccs1	·	-0.9
CCOC(=O)N1CCC(NC2CCCCCC2)CC1	18	1.0
COc1ccccc1Nc1nn2c(=O)c3ccccc3nc2s1	-6	·
Cn1c2ccccc2c2cnn(CC(=O)N3CCc4ccccc4C3)c(=O)c21	-9	·

5 compounds from above, sorted by the number in MgrA DNA FP, falling.
SMILES	S aureus helic	MgrA DNA FP
CCOC(=O)NNC(=S)Nc1cccc(C(F)(F)F)c1	·	2.9
COC(=O)C1C(=O)NC(SCc2ccccc2)=C(C#N)C1c1ccccc1 (stereo unspecified)	11	1.8
O=C(c1cccc2c1NC(c1ccc(Br)cc1)C1CC=CC21)N1CCOCC1 (stereo unspecified)	·	1.2
CCOC(=O)N1CCC(NC2CCCCCC2)CC1	18	1.0
O=C(Nc1cccc(C(F)(F)F)c1)c1ccc2nc[nH]c2c1	27	-2.5

Next structures
SMILES	S aureus helic	MgrA DNA FP
CC(C)N1CSC(=S)N(C(C)C)C1	·	-0.8
O=C(NN1C(=O)c2ccccc2NC12CCCC2)c1ccccc1	-2	-3.7
Cc1ccc(C2C3=C(CC(C)(C)CC3=O)Nc3ccccc3N2C(=O)Cc2ccc(Cl)cc2)o1 (stereo unspecified)	·	0.1
COC(=O)C1=C(O)/C(=C\c2cccc3ccccc23)N=C1C	10	1.3
FC(F)(F)c1cnc(NCCCNC(=S)Nc2cccnc2)c(Cl)c1	·	1.7
O=S(=O)(c1ccc(Nc2ccc(-c3ccccc3)nn2)cc1)N1CCCC1	-6	0.8
O=C(CNC1CC2CC=CC21)Nc1ccc(F)c(F)c1 (stereo unspecified)	-2	·
N#CCS(=O)(=O)c1ccsc1	·	0.9
Nc1ccc(S(=O)(=O)Nc2ccccc2C(F)(F)F)cc1	·	-2.9

Whole records, quoted from the list. Screens in order: S aureus helic | MgrA DNA FP
FC(F)(F)c1cnc(NCCCNC(=S)Nc2cccnc2)c(Cl)c1 is listed as · | 1.7
O=C(CNC1CC2CC=CC21)Nc1ccc(F)c(F)c1 (stereo unspecified) is listed as -2 | ·
N#CCS(=O)(=O)c1ccsc1 is listed as · | 0.9
Nc1ccc(S(=O)(=O)Nc2ccccc2C(F)(F)F)cc1 is listed as · | -2.9
